Compound activity (PubChem BioAssay)
HPGD inh: inhibitors of human 15-hydroxyprostaglandin dehydrogenase (HPGD) | P15428 | purified HPGD, NADH fluorescence kinetic, PGE2 substrate | Potency, µM, inactives show at the highest dose activity change, negative = inhibition, hits mostly inhibitors | 150,000 tested, 4.3% active | AID 894; active = well fitted inhibition curve with a large enough effect (not every such curve was filed as active); inconclusive = small, poorly fitted or top-dose-only effect, or another doubt; inactive = no such curve, though single readings can be large or run the other way;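 also: top concentration of the series not given in the record; plate controls included wells without enzyme; inactives centre near -10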
Target sequence (P15428 whole entry, looked up): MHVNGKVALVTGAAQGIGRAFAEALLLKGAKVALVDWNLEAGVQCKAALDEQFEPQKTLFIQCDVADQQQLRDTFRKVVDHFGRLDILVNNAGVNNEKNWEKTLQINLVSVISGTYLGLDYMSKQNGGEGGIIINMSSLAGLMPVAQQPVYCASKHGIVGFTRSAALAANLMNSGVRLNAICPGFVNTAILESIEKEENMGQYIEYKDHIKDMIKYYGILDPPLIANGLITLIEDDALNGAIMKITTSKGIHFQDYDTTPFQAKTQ
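NADH formation kinetics: reaction with 30 uM PGE2 and 1 mM NAD+ (final), 20 nM enzyme, Tris-HCl pH 8 with Tween 20, after 15 min compound preincubation at room temperature. Fluorescence change, last versus first of five reads.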
* = called active by the depositor; ? = inconclusive; & = joins results of further samples. % is scaled to controls: 0 for no effect and ±100 for the full control effect; potency is read from the fitted curve at half-maximal effect. Not all compounds are listed (hit frequency here may not be typical).

The first 3 records, ahead of the listing:
HPGD inh	compound
-18%	Cc1noc(C)c1C(=O)Nc1ccc2c(c1)CCC2
-4%	NS(=O)(=O)c1ccc(CCNC(=O)CCCCCNc2nc(=S)[nH]c3ccccc23)cc1
-15%	Cc1nc2scc(-c3ccccc3)c2c(=O)o1

All compounds of this part, repeating the preview:
HPGD inh	compound
-18%	Cc1noc(C)c1C(=O)Nc1ccc2c(c1)CCC2
-4%	NS(=O)(=O)c1ccc(CCNC(=O)CCCCCNc2nc(=S)[nH]c3ccccc23)cc1
-15%	Cc1nc2scc(-c3ccccc3)c2c(=O)o1
?	Cc1scc(-c2n[nH]c(=S)n2Cc2ccccc2)c1C
-12%	Cc1ccccc1-n1c(C)cc(/C=C(\C#N)C(=O)NCC2CCCO2)c1C (centres undefined)
?	CCOC(=O)Cc1nnc(NC(=O)c2ccccc2OC)s1
-20%	COc1ccc(NC(=S)Nc2ccccn2)c(OC)c1
-11%	CCCCOc1ccc(-n2nc(C)cc2C)nn1
-8%	CCOC(=O)N1CCN(c2c(NCCN3CCCCC3CC)c(=O)c2=O)CC1 (centres undefined)
-11%	CCOC(=O)Cc1csc(NC(=O)CC(C)(C)C)n1
-10%	Fc1ccc([C@H]2CCNCC2COc2ccc3c(c2)OCO3)cc1 (some centres undefined)
-15%	Cc1nnc(SCc2cccc(CSc3nnc(C)s3)c2)s1
-13%	O=C(NCc1cc(C(F)(F)F)cc(C(F)(F)F)c1)C1CC(c2ccccc2[N+](=O)[O-])=NO1 (centres undefined)
-19%	COc1ccc(/C=N/NC(=O)CNC(=O)c2ccc(S(=O)(=O)N3CCOCC3)cc2)cc1OC
4%	CCN=C1SC(CC(=O)Nc2sc(C)c(C)c2C(=O)OC)C(=O)N1CC (centres undefined)
?	CCCCCC(=O)Nc1nc(C)c(-c2csc(Nc3cc(Cl)ccc3OC)n2)s1
14µM*	CC(C)c1ccc(C(=O)NCCCN(C)C)cc1
-10%	COc1ccc(CCNc2oc(COc3ccccc3F)nc2C#N)cc1OC
-24%	Cc1ccc2nsnc2c1S(=O)(=O)NCc1cccnc1
-4%	O=C(Nc1cc(SCCO)cc([N+](=O)[O-])c1)c1ccco1
-7%	CCOc1ccc(C(c2c(O)nc(SC)n(C)c2=O)c2c(O)nc(SC)n(C)c2=O)cc1
-12%	CCCCC/C=C\C/C=C\CCCCCCCCCC(=O)O
-8%	Cc1nc(-c2ccc(NC(=O)C3CCCCC3)cc2)cs1
-8%	CCC(C(=O)O)N1C(=O)c2ccccc2C1=O (centres undefined)
1%	Cc1ccc(C(C(=O)Nc2ccc3c(c2)OCO3)N(C)C(=O)Cc2c[nH]c3ccccc23)cc1 (centres undefined)
18µM*	CCCc1cc(=O)[nH]c(SCc2nc3ccc([N+](=O)[O-])cc3[nH]2)n1
-13%	COc1ccc(CNC(=O)CCCn2nc(C)c([N+](=O)[O-])c2C)cc1
-1%	Cc1cc(F)c(F)c(C(=O)N2CCN(C)CC2)c1Cl
4%	NC1=NC2(CCCCC2)N(c2ccc(F)cc2)C(N)=N1
-4%	Cc1cccc(CCNC(=O)C2CCCN(S(=O)(=O)c3cnc[nH]3)C2)c1 (centres undefined)

A draw from above in order of formula weight, smallest number first:
HPGD inh	compound
-8%	CCC(C(=O)O)N1C(=O)c2ccccc2C1=O (centres undefined)
4%	NC1=NC2(CCCCC2)N(c2ccc(F)cc2)C(N)=N1
-1%	Cc1cc(F)c(F)c(C(=O)N2CCN(C)CC2)c1Cl
-8%	Cc1nc(-c2ccc(NC(=O)C3CCCCC3)cc2)cs1
?	Cc1scc(-c2n[nH]c(=S)n2Cc2ccccc2)c1C
-13%	COc1ccc(CNC(=O)CCCn2nc(C)c([N+](=O)[O-])c2C)cc1
-19%	COc1ccc(/C=N/NC(=O)CNC(=O)c2ccc(S(=O)(=O)N3CCOCC3)cc2)cc1OC

Further structures
HPGD inh	compound
-11%	C#CCOCCOCCOCCNc1nc(N2CCN(C(=O)Cn3cc(CCCN=C(N)N)nn3)CC2)nc(N2CCN(C(=O)[C@H](C)n3cc(CCCN=C(N)N)nn3)CC2)n1
-5%	CCO
-22%	CN(Cc1cnn(C)c1)C(=O)c1cc2ccccc2oc1=O
-8%	CN1CCN(C(=S)NCCc2ccccc2)CC1
?	O=C(CCCN1C(=O)/C(=C\c2ccco2)SC1=S)Nc1cccc2ccccc12
-2%	COC(=O)Cn1cnc(=O)c(C#N)c1/C=C/N(C)C
?	O=C(/C=C/c1ccc2c(c1)OCO2)NCc1ccco1
-15%	c1ccc2c(c1)oc1c(NCCCN3CCOCC3)ncnc12
14µM*	O=C(Nc1ccc(C(=O)N2CCOCC2)cc1)c1cccs1
18µM*	CCCc1nnc(SCc2ccc(OC)cc2)n1N
-3%	O=C(CSc1nnc(Nc2ccccc2)s1)Nc1cccnc1Cl
-4%	O=C(C1CCCN(S(=O)(=O)c2cccc3cccnc23)C1)N1CCN(c2ccc(F)cc2)CC1 (centres undefined)
?	CCC(CO)[n+]1c(C)cc(/C=C2\Sc3ccccc3N2Cc2ccccc2)cc1C (centres undefined)
-27%	CCOc1ccc(/C=C/C(=O)C(C(N)=O)=C2SCCS2)cc1
-6%	c1ccc(-c2nc3nonc3nc2-c2ccccc2)cc1
-20%	COc1ccc(Cl)cc1N1CC(C(=O)Nc2nccs2)CC1=O (centres undefined)
-8%	Cc1cc(N(C)C)c(C#N)c(=O)[nH]1
?	CC1(C)Cc2c(c(-c3ccccc3)[nH]c(=O)c2C#N)CS1
-1%	CCc1nc2ccccc2c(C(=O)Oc2cccc3cccnc23)c1C
-12%	C/C=C(\CS(=O)(=O)c1ccccc1)S(=O)(=O)c1ccccc1
-7%	CCNc1nc(SCCOc2ccc(C)cc2)nc(N(C)C)n1
-3%	O=C(CCc1ccc(S(=O)(=O)N2CCOCC2)cc1)N1CCCC1
-2%	CCN(CC)NC(=S)Nc1ccccc1
-10%	CC(C)c1ccccc1NC(=O)c1ccc(CN(c2ccccc2)S(=O)(=O)c2ccccc2)cc1
-5%	O=C(CCC(=O)OCC(F)(F)C(F)F)Nc1ccc(F)cc1F
0%	C=CCn1c(COc2ccc(Cl)cc2)nnc1SCC(=O)N1CC(=O)Nc2ccccc21
-7%	Cc1ccc2nc(SC(C)C(=O)N3CCCC3)[nH]c2c1 (centres undefined)
-10%	Cc1ccc(-c2nnn(CC(=O)N(c3ccccc3)C(C(=O)NC3CCCC3)c3ccco3)n2)o1 (centres undefined)
?	Cc1csc2ncc(C(=O)NCc3ccccc3Cl)c(=O)n12
?	Cc1cccc2c1-c1sc(C(=O)N3CCc4ccccc4C3)cc1CO2
-2%	Cc1c(NC(=O)C(C)Oc2ncnc3ccccc23)c(=O)n(-c2ccccc2)n1C (centres undefined)
-11%	CC(C)N(Cc1nc(-c2ccccc2)no1)C(=O)CCCN1C(=O)c2ccccc2C1=O
-11%	C=CCC1C=CCC(CC=C)N1C(=O)c1ccccc1[N+](=O)[O-] (centres undefined)
-11%	CC1(C)C(CO)=CC(=O)C2=C1SCC(=O)N2
-8%	COc1ccc2c(c1)nc(SCC(=O)c1cccs1)n2C
-6%	O=C(Oc1cccnc1)c1ccc([N+](=O)[O-])cc1
-28%	N#CC(C#N)=Cc1cc2ccccc2nc1N1CCCCC1
-3%	O=C(CN1CCC(NC(=O)Cc2ccccc2)CC1)Nc1cccc2ccccc12
4%	Cc1noc(C)c1COC(=O)[C@H](C)NS(=O)(=O)c1ccc(Cl)c(Cl)c1
-17%	Cc1cc(NC(=O)CSc2nnc(-c3ccc4c(c3)OCCO4)o2)no1
-3%	COCCCNc1nc2c(c(=O)[nH]c(=O)n2C)n1CC(O)COc1ccccc1 (centres undefined)
-9%	COc1ccc(CC(=O)O/N=C(\N)Cc2cccc3ccccc23)cc1
?	Cc1nnc(SC(=O)N2c3ccccc3Sc3ccccc32)s1
-11%	CCOP(=O)(c1ccccc1)c1nc(-c2ccc(F)cc2)oc1N1CCCCC1 (centres undefined)
-4%	COC(=O)CC/C(O)=C1\C(=O)CC(C)(C)CC1=Nc1ccccc1OC
?	Cc1cc(C)c2c(=O)n(CC(=O)NCCCN3CCN(c4ccccc4F)CC3)sc2n1
-8%	CCCCOC(=O)NC(NCC(O)c1ccccc1)(C(F)(F)F)C(F)(F)F (centres undefined)
?	CC1CCCN(Cc2c(O)ccc3c(=O)c(-c4nc5ccccc5s4)c(N)oc23)C1 (centres undefined)
-8%	c1ccc(-c2cnnc(N3CCOCC3)n2)cc1
-16%	Cc1cc(NC(=O)CSc2nc3ccccc3s2)no1
?	CCc1c(C)sc(NC(=O)c2cc(-c3ccc(O)cc3)on2)c1C#N
-9%	Cc1cc(Cl)ccc1N=C1N=C(N)c2ccccc21
?	O=C(c1cncc(Br)c1)N1CCN(c2ccc(N3CCOCC3)nn2)CC1
-24%	COc1ccc(C(=O)CSc2nc3nc(C)cc(C)n3n2)cc1OC
-1%	Cc1cccc(N2CCN(C(=O)c3cc(C)oc3C)CC2C)c1 (centres undefined)
-11%	COc1ccc(NC(=O)N2CCCC2)cc1OC
-9%	Cc1onc(-c2ccccc2)c1C(=O)Nc1cccc(OC(C)C)c1
28µM*	Cc1nc(N2CCN(C(=O)c3ccco3)CC2)c2c3c(sc2n1)CCC3
-8%	Cc1ccc2[nH]c(C(=O)O)c(NC(=O)c3ccccc3[N+](=O)[O-])c2c1
-7%	COCCCN1C(=O)C(=O)/C(=C(/O)c2ccc(OCC(C)C)cc2)C1c1cccnc1 (centres undefined)

Four of the compounds above, field by field.
> CC1CCCN(Cc2c(O)ccc3c(=O)c(-c4nc5ccccc5s4)c(N)oc23)C1 (centres undefined)
  HPGD inh: ?

> c1ccc(-c2cnnc(N3CCOCC3)n2)cc1
  HPGD inh: -8%

> Cc1cc(NC(=O)CSc2nc3ccccc3s2)no1
  HPGD inh: -16%

> CCc1c(C)sc(NC(=O)c2cc(-c3ccc(O)cc3)on2)c1C#N
  HPGD inh: ?

The list goes on:
HPGD inh	compound
-15%	CCOc1cccc2cc(C(=O)N3CCc4ccccc43)c(=O)oc12
?	CN(C(=O)c1ccno1)c1nnc(-c2ccccn2)s1
?	CCOC(=O)CNC(=O)Cn1c(C)cc2ccccc2c1=O
-7%	CC(=O)C1=C(C)Nc2ncnn2C1c1ccc(Cl)cc1 (centres undefined)
3%	Cc1ccc(C)c(NC(=S)Nc2ccc(S(=O)(=O)Nc3ncccn3)cc2)c1
-14%	CCOC(=O)N1CCN(C(=O)c2ccc3c(=O)n(CCC4=CCCCC4)c(=S)[nH]c3c2)CC1
-26%	CC(=O)OCCNC(=O)c1cc2ccccc2oc1=O
-9%&-6%	C[C@@H](C(=O)NCC1CC1)[C@H]1C[C@]1(C)[C@H](NC(=O)OCc1ccccc1)c1ccccc1
-27%	O=C(CSc1ccccc1)Nc1ccncc1
-9%	COc1ccc(C(=O)n2nc(C)cc2C)cc1OC
-1%	Cc1nc2c(s1)sc1ccccc12
-2%	COc1ccc(Cn2c(C)c(C)c(C#N)c2NC(=O)Nc2cccc(Cl)c2)cc1
-27%	CCOCCOC(=O)C1=C(C)NC2=C(C(=O)CC(c3cccs3)C2)C1c1ccsc1 (centres undefined)
?	CSc1ccccc1-c1nnc(-c2ccc(C)cc2)o1
?	COc1cc(/C=N/NC(=O)CCN2CCN(Cc3ccccc3)CC2)cc(OC)c1OC
?	CCN1c2cccc3cccc(c23)S1(=O)=O
-2%	CC(C)CC(=O)NS(=O)(=O)c1ccc(N)cc1
-7%	COc1ccc(NC(=O)Cn2nc(C(F)(F)F)c3c2CCCC3)cc1OC
0%	O=C(NCCc1ccccc1)C1CCN(C(=O)NCc2ccccc2)CC1
-6%	c1cc2c(cc1C1CCCCC1)c1c3n2CCN[C@H]3CCC1
-9%	CC(C)N(CCNC(=O)c1ccc(Cc2nc3ccccc3[nH]2)cc1)C(C)C
-12%	COC(=O)CNC(=O)C1CCN(C(=O)OCc2ccccc2)CC1
-9%	CC(=O)Cc1nsc(NC(=O)c2cc(-c3ccccc3Cl)oc2C)n1
-19%	COc1ccnc(Oc2ccc(C)cc2)c1C#N
?	COc1cc(C(=O)Nc2ccc(-c3nc4cc(C)ccc4o3)c(O)c2)cc(OC)c1OC
-8%	O=C(CN1CCCc2ccccc21)N/N=C/c1ccccc1
2%	Cc1[nH]c2ccccc2c1C(=O)COC(=O)C(C)C
-22%	O=C(O)CCc1ccc(-c2ccccc2)n1-c1cccc(O)c1
14µM*	O=[N+]([O-])c1cc(Cl)ccc1-c1nc(-c2ccccc2)no1
0%	COCCNC(=O)CN(C(=O)CCC(=O)Nc1cc(C)on1)c1ccc(C)cc1C
28µM*	Cc1cccc(NC(=O)/C=C/c2cccs2)n1
-16%	COC(=O)c1ccc(Cn2cnc3ccccc3c2=O)cc1
-2%	COc1ccccc1S(=O)(=O)c1ccccc1[N+](=O)[O-]
-11%	O=C(NC1CCCCC1)C12CC3CC(C1)CC(n1cncn1)(C3)C2
-18%	COc1ccc(C(=O)NNc2ccccc2)cc1
3%	CN(C)CCNC(=O)Cn1nc(C(F)F)cc1C1CC1
-12%	Cc1cc(O)cc(O)c1C(=O)O
-15%	CCc1nc(SCC(=O)N2c3ccccc3CC2C)c2c(C)c(C)sc2n1 (centres undefined)
-1%	CCC(C)(C(=O)NC1CCCC1)N(C(=O)c1cnccn1)c1ccccc1 (centres undefined)
-4%	Nc1n[nH]c(CCCO)n1
-13%	COC(=O)CN1C(=S)N(Cc2ccccc2)C(=O)C1CC(=O)Nc1ccc(OC)cc1 (centres undefined)

Five entries picked at random from those above:
HPGD inh	compound
-11%	O=C(NC1CCCCC1)C12CC3CC(C1)CC(n1cncn1)(C3)C2
-1%	CCC(C)(C(=O)NC1CCCC1)N(C(=O)c1cnccn1)c1ccccc1 (centres undefined)
-13%	COC(=O)CN1C(=S)N(Cc2ccccc2)C(=O)C1CC(=O)Nc1ccc(OC)cc1 (centres undefined)
-18%	COc1ccc(C(=O)NNc2ccccc2)cc1
-4%	Nc1n[nH]c(CCCO)n1
